VDR inh – blocks the human vitamin D receptor; hit rate 0.93% among 400,000; P11473; VDR-SRC2-3 peptide fluorescence polarization, 2 h; Potency, µM, for inactives: max response, negative = inhibition, actives largely listed as inhibitors; active means well fitted inhibition curve with a large enough effect; inconclusive means small, poorly fitted or top-dose-only effect, or another doubt; inactive means no such curve, though single readings can be large or run the other way; further: series mostly up to about 120 µM
Target sequence (P11473 whole entry, looked up): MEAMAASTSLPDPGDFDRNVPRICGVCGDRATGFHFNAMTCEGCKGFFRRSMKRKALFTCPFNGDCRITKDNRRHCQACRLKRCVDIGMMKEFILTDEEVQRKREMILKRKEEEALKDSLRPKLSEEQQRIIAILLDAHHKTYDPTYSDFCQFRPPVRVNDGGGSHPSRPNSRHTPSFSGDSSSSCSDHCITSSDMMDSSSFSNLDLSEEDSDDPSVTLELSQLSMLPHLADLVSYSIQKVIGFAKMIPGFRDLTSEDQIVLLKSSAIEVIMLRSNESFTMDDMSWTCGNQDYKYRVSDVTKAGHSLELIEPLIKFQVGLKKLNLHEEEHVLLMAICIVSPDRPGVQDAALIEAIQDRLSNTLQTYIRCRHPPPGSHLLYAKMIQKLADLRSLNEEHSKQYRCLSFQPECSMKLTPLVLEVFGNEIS
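Inhibition of the VDR/SRC2-3 peptide interaction is quantified by fluorescence polarization. Compounds (23 nl, pintool) incubate with the reagents for 2 hours at ambient room temperature.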
Starred values were filed as active, the others as inactive; ? = inconclusive; & = joins results of further samples. On the % scale 0 is the no-effect control and ±100 the full control effect; potency means the concentration at half of the fitted maximal effect.

The opening 7 entries as a preview:
SMILES	VDR inh
CC(=O)Nc1ccc(S(=O)(=O)NC(CC(=O)NC2CCCCC2C)C(C)C)cc1 (configuration not stated)	-11%
COc1ccc(S(=O)(=O)N2CCC(C(=O)NCCOc3ccccc3F)CC2)cc1OC	2%
CCN(CC)CCN1C(=O)c2oc3ccccc3c(=O)c2C1c1cccc(Br)c1 (configuration not stated)	15%
Cc1cccc(C)c1NC(=O)N1CCCCCCC1	-10%
COc1ccc(-c2noc(-c3ccc(C)cc3Cl)n2)cc1OC	-10%
CCN(CCn1cccn1)C(=O)CC1C(=O)NCCN1Cc1ccc(OC)c(OC)c1 (configuration not stated)	0%
CC(C)CC(C(=O)NCc1ccc(F)cc1)N1Cc2ccccc2C1=O (configuration not stated)	14%

The list itself, repeating the preview:
SMILES	VDR inh
CC(=O)Nc1ccc(S(=O)(=O)NC(CC(=O)NC2CCCCC2C)C(C)C)cc1 (configuration not stated)	-11%
COc1ccc(S(=O)(=O)N2CCC(C(=O)NCCOc3ccccc3F)CC2)cc1OC	2%
CCN(CC)CCN1C(=O)c2oc3ccccc3c(=O)c2C1c1cccc(Br)c1 (configuration not stated)	15%
Cc1cccc(C)c1NC(=O)N1CCCCCCC1	-10%
COc1ccc(-c2noc(-c3ccc(C)cc3Cl)n2)cc1OC	-10%
CCN(CCn1cccn1)C(=O)CC1C(=O)NCCN1Cc1ccc(OC)c(OC)c1 (configuration not stated)	0%
CC(C)CC(C(=O)NCc1ccc(F)cc1)N1Cc2ccccc2C1=O (configuration not stated)	14%
O=C(Oc1ccc(NC2=C(Cl)C(=O)c3ccccc3C2=O)cc1)c1ccc([N+](=O)[O-])cc1	-6%
COc1ccc(S(=O)(=O)Nc2cc3c4c(c2)C(C)C(=O)N4CCC3)cc1OC (configuration not stated)	-6%
Cc1ccccc1NC(=O)CC1SC(=NC2CCCCC2)NC1=O (configuration not stated)	1%
COc1ccc(-n2ncc3c(NC(C)C)ncnc32)cc1	-12%
O=C(CSc1ccc2nnc(-c3ccccc3)n2n1)NCc1ccc2c(c1)OCO2	9%
O=C(Nc1nccs1)c1cccc(S(=O)(=O)N2CCCCC2)c1	9%
CCOC(=O)C1(Cc2ccccc2)CCN(Cc2cc(OC)c3c(c2)OCO3)CC1	-1%
O=C(N/N=C/c1ccccc1C(=O)O)c1ccncc1	-7%
CCN1CCN(c2ncnc3scc(-c4ccc(C)c(C)c4)c23)CC1	9%
CC(C)(C)OC(=O)N1CCC(NC(=O)c2[nH]cnc2C(=O)Nc2cccc(Cl)c2)CC1	9%
COc1ccccc1NC(=O)CCn1c(=O)c2cccn2c2ccccc21	4%
Cc1csc(NC(=O)c2cc[n+]([O-])cc2)n1	11%
COc1ccc2c(c1)C(=O)N(CCc1ccc(S(=O)(=O)NC(=O)NC3CCCCC3)cc1)C(=O)C2(C)C	-16%&-6%
COc1ccc(OC)c(NC(=O)CCN2CC(C)CC(C)C2)c1 (configuration not stated)	-21%
Cc1cc(C(=O)OCC(=O)Nc2nccs2)c2ccccc2n1	?
COc1cc(C(=O)OCC(=O)N2CCN(C(C)=O)CC2)ccc1OCC(C)C	-25%
COC(=O)C1=C(C(=O)OC)[C@@H]2N(Cc3ccccc3)c3ccccc3[C@@]23C[C@@H](C(=O)OC)N(C(=O)NC2CCCCC2)C3=N1	-7%
CCSCCOC(=O)C1=C(C)N(C)C(=O)NC1c1cc(OC)ccc1OC (configuration not stated)	11%
CC/C(C)=N/N1C(=O)c2ccccc2NC1(C)CC (configuration not stated)	2%
COCc1c(C(=O)NC(C)c2ccc(S(N)(=O)=O)cc2)oc2ccccc12 (configuration not stated)	-5%
COc1ccc(OC)c(/C=C/C(=O)N(C)CC(=O)Nc2ccc(C)cc2)c1	3%
CC(Nc1ccc(Br)cc1)C(=O)Nc1cccc(S(=O)(=O)N2CCOCC2)c1 (configuration not stated)	-1%
CCc1ccc2oc(C(=O)NCC(c3ccc(Cl)cc3)N3CCOCC3)c(C)c2c1 (configuration not stated)	5%
Cc1ccc(S(=O)(=O)N2CCOCC2)cc1C(=O)OCC(=O)NCCc1ccccc1	-7%
CCCCn1c(N)c(N(CCC(C)C)C(=O)c2cccc(N3C(=O)c4ccccc4C3=O)c2)c(=O)[nH]c1=O	-24%
COc1ccc(C2=NN(C(=O)c3ccc(Cl)c([N+](=O)[O-])c3)C(c3ccccc3)C2)cc1 (configuration not stated)	-5%
CN(c1nnc(N)s1)C1CCCCC1	-22%
O=C(Nc1cccc(S(=O)(=O)N2CCOCC2)c1)c1cc(S(=O)(=O)N2CCOCC2)c(Cl)cc1Cl	5%
CC1CCN(CC(O)COCCOc2ccc(Br)cc2)CC1 (configuration not stated)	-6%
O=C(CCCCCCCCN1C(=O)c2ccccc2C1=O)N1CCOCC1	-7%
Cn1c(N)c(Br)c(-c2ccc(F)cc2)c(C#N)c1=O	1%
CO/N=C/c1ccc(N2CCN(C(=O)c3cccc(C(F)(F)F)c3)CC2)c([N+](=O)[O-])c1	9%
Nc1c(N(CCC2=CCCCC2)C(=O)Cc2ccc(F)cc2)c(=O)[nH]c(=O)n1Cc1ccccc1	-22%
CC(C)(C)OC(=O)NCc1ccc(CNC(=O)c2nc[nH]c2C(=O)NCc2ccccc2)cc1	-14%
COc1cc(C(=O)N/N=C/c2ccc(OC(=O)c3ccccc3)c(OC)c2)ccc1O	13%
O=C1NC(=O)C(=Cc2ccccc2)N1	8%
O=C1N[C@@H](Cc2ccccc2)C(=O)N2CCCC12 (some centres not stated)	11%&2%
CC(=O)C1=C(O)C=C2Oc3c(C(C)=O)c(O)c(C)c(O)c3C2(C)C1=O (configuration not stated)	-4%
O=C(Nc1cc(S(=O)(=O)N2CCCCC2)ccc1Oc1ccccc1)C1=COCCO1	-8%
O=C(Nc1ccccc1)N1CCN(Cc2ccccc2)CC1	7%
Cc1ccc(C2NS(=O)(=O)N=C2N)cc1 (configuration not stated)	-8%

5 records drawn at random from those above, as already listed:
SMILES	VDR inh
COc1cc(C(=O)N/N=C/c2ccc(OC(=O)c3ccccc3)c(OC)c2)ccc1O	13%
O=C(Nc1cc(S(=O)(=O)N2CCCCC2)ccc1Oc1ccccc1)C1=COCCO1	-8%
O=C1NC(=O)C(=Cc2ccccc2)N1	8%
O=C(CCCCCCCCN1C(=O)c2ccccc2C1=O)N1CCOCC1	-7%
CO/N=C/c1ccc(N2CCN(C(=O)c3cccc(C(F)(F)F)c3)CC2)c([N+](=O)[O-])c1	9%

Further compounds follow.
SMILES	VDR inh
COc1ccc(/C=C/C(=O)NC(=S)Nc2ccc(C(=O)O)cc2)cc1	-10%
O=S(=O)(O)c1ccc(N=Nc2ccccc2)cc1	9%
Cc1ccc2nc(SCC(=O)Nc3nonc3N)[nH]c2c1	-8%
O=[N+]([O-])c1ccccc1Oc1ccc(C(F)(F)F)cn1	1%
COc1cccc(/C=C2/NC(=O)N(CC(=O)Nc3ccc(C)cc3)C2=O)c1OCc1cccc(C(=O)O)c1	-8%
COc1ccc(C(C#N)N2CCCCC2)cc1OC (configuration not stated)	8%
CS(=O)(=O)Nc1cccc(-c2nc(NCc3ccccc3)c3ccccc3n2)c1	50µM*
Oc1[nH]c2ccccc2c1N=Nc1nncc2ccccc12	-14%
CN(C(=O)c1ccccc1)c1nc2ccccc2s1	-7%
CN1CCN(C(=O)/C=C/c2ccc(Cl)cc2)CC1	22%
C=CCC(NCc1ccccc1)c1ccc(OC)cc1 (configuration not stated)	-14%
CCCCN(C(=O)c1cc(S(=O)(=O)N2CCOCC2)ccc1Cl)c1c(N)n(CC(C)C)c(=O)[nH]c1=O	-8%
COc1cc(NS(=O)(=O)c2ccc(N/C=C(\C#N)c3nc4ccccc4o3)cc2)nc(OC)n1	-4%
COc1ccc(/C=N/NC(=S)Nc2ccccc2[N+](=O)[O-])cc1O	1%
CCc1ccc(C2C(C(=O)Nc3ccccc3OC)=C(C)Nc3nc(SCc4ccccc4)nn32)cc1 (configuration not stated)	-17%
CC(=O)c1ccc(NC(=O)C2CCC(CNS(=O)(=O)c3ccc4c(c3)CCCC(=O)N4)CC2)cc1 (configuration not stated)	5%
COc1ccc(NC2CCCN(C(=O)c3cc(C)nc4cc(F)ccc34)C2)cc1 (configuration not stated)	-8%
CCOC(=O)c1sc(NC(=S)NC(=O)c2ccccc2)c(C(=O)OCC)c1C	-22%
Cc1n[nH]c(C)c1S(=O)(=O)N1CCCC(C(=O)NCc2ccccc2Cl)C1 (configuration not stated)	-8%
CCOc1ccc(C(=O)Nc2ccc(NC(=S)NC(=O)CC)cc2)cc1Cl	0%
Cc1cc(C(=O)NNC(=O)/C=C/c2ccc(F)cc2)c(C)o1	6%
CCCCOc1ccc(CNC(=O)Cc2ccc(NC(=O)N3CCCCc4ccccc43)cc2)cc1	3%
O=C(COC(=O)c1cc(Cl)cc(Cl)c1)NCc1ccco1	-7%
Nc1ccc(C23CC4CC(CC(C4)C2)C3)cc1	-7%
Cc1cc(C)c(-c2n[nH]c3c2C(c2ccccc2F)N(CCO)C3=O)c(O)c1 (configuration not stated)	7%
CC(=O)N/N=C(\C)CC(=O)NC(C)(C)C	17%
COc1ccc(SCC(CC(C)C)N2CCN(CCc3ccccc3)CCC2=O)cc1 (configuration not stated)	0%
CN(NC(=O)NN(C)C(=O)c1ccccc1)C(=O)c1ccccc1	-4%
Cc1cc(C)c(C(N)=O)c(SCC(=O)c2ccc(Cl)cc2)n1	-7%
CC(=O)OC(C(=O)Nc1ccccc1)C(C)S(=O)(=O)c1ccccc1 (configuration not stated)	-7%
COc1ccc(N2CC(NC(=O)c3ccc(S(=O)(=O)N4CCOCC4)cc3)CC2=O)cc1OC (configuration not stated)	-2%
COc1ccccc1CNCc1cc(Br)ccc1OC	-4%
COc1ccccc1-c1coc2c(CN(C)C)c(O)ccc2c1=O	-12%
Cn1c(N)c(C(=O)CSc2nc(C3CC3)n(-c3ccccc3)n2)c(=O)[nH]c1=O	-12%
Cc1c[n+](CC(=O)c2ccccc2)cs1	-2%
COc1ccc(/C=C2\SC(=S)N(c3cccnc3)C2=O)cc1	-3%
O=C(CCCC(=O)NCCc1ccccc1)NCCc1ccccc1	?
COc1ccccc1N1CCN(C(=O)CCCCCn2c(=O)[nH]c3ccsc3c2=O)CC1	14%
CC(=O)c1cc(-c2ccc(F)cc2)n(CC(=O)Nc2cc(C)cc(C)c2)c1C	-5%
CCOC(=O)c1cnc(SCC(=O)Nc2ccccc2C(=O)OC)nc1N	29%
Cc1ccc(NC(=O)C2CCN(c3nnc(-n4cccc4)s3)CC2)cc1Cl	-12%
CCCCN(CCCC)CCn1cnc2c([nH]c3ccc(OC)cc32)c1=O	-7%&4%
NC(=O)Cn1c(=O)n(CCCCCC(=O)NCc2ccccc2Cl)c(=O)c2sccc21	-6%
CCN(CC)S(=O)(=O)c1cc(NC(=O)[C@@H](NC(N)=O)C(C)C)ccc1C	2%
CCCC(=O)N/C(N)=N/c1nc(C)c2cc(C)ccc2n1	-1%
O=C1CCCCC1Nc1ccc(Br)cc1 (configuration not stated)	-3%
CN(C)/C=C(\C#N)C(=O)N/N=C/c1ccc(F)cc1	4%
O=C(Nc1cccc(Cl)c1N1CCCCC1)c1ccc(N2CCOCC2)c([N+](=O)[O-])c1	1%
CCN1CCc2c(sc(NC(=O)c3ccc(S(=O)(=O)N4CCCCCC4)cc3)c2C(=O)NC)C1	11%
CCOc1ccccc1NC(=O)CN(c1cc(C)cc(C)c1)S(=O)(=O)c1c(C)nn(C)c1C	-2%
CCOc1ccc2oc(C(=O)N3CCN(c4ccccc4OCC)CC3)c(C)c2c1	-2%
CC(C)(C)c1ccc(C(=O)NCCC(=O)N2CCC3(CC2)NCCc2[nH]cnc23)cc1	10%
Clc1ccc(OCCNCCc2ccccc2)cc1	-10%
O=C(CSc1nc2ccccc2c(=O)n1NC(=O)c1ccccc1)c1ccc(Cl)cc1	2%
CCOc1cc(CNCCSc2nnnn2C)cc(Br)c1OCc1ccccc1	-17%
COc1cccc(Cn2c(=O)c(C)nc3cnc(Oc4cccc(Cl)c4)nc32)c1	-21%
O=C(O)c1ccccc1-c1ccc(/C=C/c2cc(C(F)(F)F)[nH]c(=O)n2)o1	-13%
O=C(NCc1cccc(Br)c1)C1CC2Cn3c(nc4ccccc43)C2N1c1ccccc1 (configuration not stated)	-15%
CC(Sc1nc2ccccc2c(=O)n1CC1CCCO1)C(=O)Nc1ccc(S(N)(=O)=O)cc1 (configuration not stated)	12%
O=C(c1ccccc1Cl)N(Cc1ccco1)Cc1ccco1	0%

Remaining list, next part.
SMILES	VDR inh
CCOC(=O)c1c(-c2ccc(OC)cc2)csc1NC(=O)CSc1ccccc1	-3%
O=C(NNC(=S)NCCc1ccccc1)c1ccc(Br)s1	4%
O=C(Cc1ccc(F)cc1)NC1CC(=O)N(c2ccc3c(c2)OCCO3)C1 (configuration not stated)	7%
COc1ccc(CCNC(=S)N2CCN(S(=O)(=O)c3ccc(C)cc3)CC2)cc1	-18%
COC(=O)c1ccccc1NC(=O)c1sc(N)nc1C	7%
C/C(=N/Nc1ncc(Br)cn1)c1ccc([N+](=O)[O-])cc1	8%
Cc1ccc(N2CC(NS(=O)(=O)c3cccs3)CC2=O)cc1 (configuration not stated)	-14%
CCN(CC)CCN1C(=O)C(=O)/C(=C(/O)c2ccncc2)C1c1ccccc1F (configuration not stated)	6%
O=C(Nc1cc(-c2ccccc2)[nH]n1)c1ccc(Cl)cc1	15%
CCOC(=O)c1ccc2c(c1)n(CC)c(/C=C/N(C)c1ccccc1)[n+]2CC	-6%
Cc1cc(OC(C)C(=O)NCCCN2CCOCC2)c2c(C)c(C)c(=O)oc2c1 (configuration not stated)	-1%
CC1CCCCN1S(=O)(=O)c1ccc(C(=O)Nc2sc3c(c2C(N)=O)CC(C)(C)NC3(C)C)cc1 (configuration not stated)	8%

This is a subset (hit frequency here may not be typical).
